TRPML1 blocker: blocks the human TRPML1 channel | Q9GZU1 | TRPML1-inducible cells, Ca2+ dye fluorescence, FDSS; stronger effect = lower value; inhibition of EC80 agonist-evoked calcium signal | activity change, negative = inhibition, % (no concentration beside the values) | 390,000 compounds, 0.02% hits; in the data active means activity change below about -50%; inconclusive means about -30% to -50%; inactive means above about -30%;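 note: stimulus is agonist 54-4 at its EC80 concentration; % is set by controls: 0 for no effect and ±100 for the full control effect; compound concentration not given in the record; the text of the record puts the active cut at -80%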
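Tet-induced TRPML1-DL cells loaded with Ca8 no-wash calcium dye were read kinetically on FDSS. Compound addition was followed by EC80 agonist 54-4 (4 uM final); inhibition was read over 110 s.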
TRPML1 agonist: activates the human TRPML1 channel; Q9GZU1; TRPML1-expressing cells, Ca2+ dye fluorescence, FDSS; host cell line not named in the record; reference of the full effect not given here; activation, % (test concentration not listed); 410,000 compounds, 0.12% hits; AID 624414; in the data active = activation above about 50%; inconclusive = about 30% to 50%; inactive = below about 30%; note: 0% is about no effect; the text of the record puts the active cut at 80%
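In this qHTS format, compounds were pin-transferred onto Ca8-dye-loaded TRPML1-DL cells induced with Tet overnight, and intracellular Ca2+ fluorescence was recorded kinetically for 110 s after a 10 s baseline. A subsequent 4uM final 54-4 (EC80) addition followed by a second 110 s read served as the antagonist phase.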
Sfp PPTase inh: Sfp phosphopantetheinyl transferase inhibition; Q9F4F7; Biochemical Sfp PPTase activity, qHTS; Potency, µM, without a hit: max response, negative = inhibition, most hits filed as inhibitors; 310,000 compounds, 3.5% hits; AID 1490; active = well fitted inhibition curve with a large enough effect; inconclusive = small, poorly fitted or top-dose-only effect, or another doubt; inactive = no such curve, though single readings can be large or run the other way;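 note: the enzyme is Sfp with the accession as filed and its product quenches rhodamine fluorescence; potency is the fitted concentration of half-maximal effect; 0% = enzyme reaction without inhibitor and -100% = no enzyme wells; top concentration of the series not given in the record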
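Reaction rates are the 30-min fluorescence difference (ex 525, em 598 nm) in wells containing 15 nM Sfp, 5 uM rhodamine-CoA and 12.5 uM BHQ-2-YbbR at pH 7.6 with 10 mM MgCl2.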
TRPV1 PAM: potentiators of human vanilloid receptor 1 (TRPV1) | Q8NER1 | TRPV1-expressing cells, Fluo-8 calcium influx, capsaicin EC20 potentiation; host cell line not named in the record; control for the full effect not named in the record | potentiation, % at 8.33 µM | 320,000 compounds, 0.02% hits | AID 540277; active means potentiation above 80%; inconclusive means 30% to 80%; inactive means below 30%; note: 0% is about no effect
Target sequence (Q8NER1 whole entry, looked up): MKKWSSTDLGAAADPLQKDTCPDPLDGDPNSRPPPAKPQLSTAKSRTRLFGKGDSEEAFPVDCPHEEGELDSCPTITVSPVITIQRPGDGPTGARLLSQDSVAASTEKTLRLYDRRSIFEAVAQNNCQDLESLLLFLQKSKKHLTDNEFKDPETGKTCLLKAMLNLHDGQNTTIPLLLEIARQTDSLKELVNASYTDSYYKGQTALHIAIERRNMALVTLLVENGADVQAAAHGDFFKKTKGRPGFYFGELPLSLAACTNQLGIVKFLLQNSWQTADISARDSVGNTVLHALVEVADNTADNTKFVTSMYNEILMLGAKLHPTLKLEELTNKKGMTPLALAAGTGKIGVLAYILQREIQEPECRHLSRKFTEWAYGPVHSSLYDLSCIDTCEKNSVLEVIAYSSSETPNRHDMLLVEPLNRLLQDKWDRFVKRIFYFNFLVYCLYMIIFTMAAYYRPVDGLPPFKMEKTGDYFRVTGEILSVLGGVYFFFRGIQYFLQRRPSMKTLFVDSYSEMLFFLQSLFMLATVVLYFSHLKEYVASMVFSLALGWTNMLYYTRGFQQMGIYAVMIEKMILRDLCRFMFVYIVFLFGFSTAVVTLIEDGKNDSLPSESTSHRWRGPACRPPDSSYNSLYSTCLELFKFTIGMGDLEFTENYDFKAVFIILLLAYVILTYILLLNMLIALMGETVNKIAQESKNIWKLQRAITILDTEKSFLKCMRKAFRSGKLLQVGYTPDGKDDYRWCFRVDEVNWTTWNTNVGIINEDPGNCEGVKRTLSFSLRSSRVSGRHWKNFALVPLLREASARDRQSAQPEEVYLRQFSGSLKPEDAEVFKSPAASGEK
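Cells expressing TRPV1 were dye-loaded with Fluo-8 and read kinetically: 10 s baseline, 3 min after compound (agonist portion), then 2 min after EC20 capsaicin (allosteric enhancer portion). Calcium-bound dye fluorescence at 480/520 nm.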
PINK1 modulator: changes PINK1 expression. PINK1 immunofluorescence, high-content cytometry, 24 h. Potency, µM (top dose mostly 76.6 µM), without a hit: at the top dose activation (PINK1 increase), most hits filed as activators. 410,000 compounds, 0.2% hits; active = well fitted activation curve with a large enough effect; inconclusive = small, poorly fitted or top-dose-only effect; inactive = flat fitted curve, though single readings scatter; cell line not stated here;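 note: potency is the fitted concentration of half-maximal effect; % of control where 0% means no effect; nearly all actives have a fitted effect of over 65% in size; a mitochondrial uncoupler was the plate control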
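Stable cell line, 250 cells/well, 12 h attachment; compounds pinned at 5 concentrations, 24 h; CCCP control. Fixed with nuclear dye, primary antibodies 12 h at 10 degrees C, secondary plus cell stain; laser-scanning cytometer read.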
Menin-MLL FL inh: displaces fluorescein MLL peptide from human menin; 290,000 tested, under 10 active; Fluorescence polarization, fluorescein-MLL peptide displacement from menin; FP activity change, % at 61.4 µM; AID 1766; inconclusive = falling polarisation curve, or a change in total fluorescence; inactive = total fluorescence flat and polarisation flat or rising; no compound was filed as active; the % refers to the polarisation; negative = inhibition;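 note: % of control where 0% means no effect; inhibitors lower the polarisation; unlabelled MLL peptide was the positive control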
ClpP mod: qHTS Assay for Activators of ClpP; purified B. subtilis ClpP, FRET peptide cleavage, 20 min; ATP-dependent Clp protease proteolytic subunit (Bacillus subtilis (strain 168)), P80244; 340,000 compounds, 1.9% hits; Potency, µM (series often up to 57.5 µM), for the others: top-dose activity change, negative = active; active = well fitted falling curve with a large enough effect; inconclusive = small, poorly fitted or top-dose-only effect; inactive = no such curve, though single readings can be large or run the other way; note: potency is the fitted concentration of half-maximal effect; the source files actives as falling curves though it sought activators and does not explain the sign; nearly all actives have a fitted effect of over 65% in size; many hits overshoot -100%
Target sequence (P80244 whole entry, looked up): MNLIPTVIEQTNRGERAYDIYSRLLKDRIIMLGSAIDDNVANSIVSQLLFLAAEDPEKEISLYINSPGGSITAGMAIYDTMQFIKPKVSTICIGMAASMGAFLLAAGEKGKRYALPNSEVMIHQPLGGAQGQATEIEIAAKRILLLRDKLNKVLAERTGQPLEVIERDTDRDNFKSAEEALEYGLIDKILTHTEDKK
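Purified B. subtilis ClpP, 10 microg/mL final in Tris/HCl pH8 with KCl, BSA, glycerol and Tween-20, cleaved an Abz/nitrotyrosine-quenched decapeptide. Fluorescence (ex 320, em 430) was read at 0 and 20 min at room temperature. Delta was normalized to 5.8 microM ADEP and DMSO/no-enzyme controls.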
Active calls of the source: *; ? = inconclusive; · = not tested or not shown; & = joins results of further samples; [ ] = dose if it differs, or a comment.

SMILES | TRPML1 blocker | TRPML1 agonist | Sfp PPTase inh | TRPV1 PAM | PINK1 modulator | Menin-MLL FL inh | ClpP mod
CCc1nc2ccc(C(=O)N3CCN(c4ccccc4)CC3)cn2c1N(CCC(C)C)CCN(C)C | · | 0.7 | · | · | 2.7% | · | -4.0%
O=c1[nH]c(=S)[nH]c2n[nH]nc12 | · | 0.5 | · | · | 1.6% | · | -3.0%
COc1ccc(-c2nc3c(c(SC)n2)Cc2c(CO)cnc(C)c2O3)cc1 | 5.4 | -0.1 | · | · | 0.1% | · | 0.0%
Cc1c(CN2CCC(n3nccc3NC(=O)C3CC3)CC2)[nH]c2ccccc12 | -8.1 | 2.7 | 0.8% | -5.8 | 1.1% | · | -14.0%
O=C1CCCN1CCC1CCN(C(=O)Nc2ccccc2)CC1 | ? | 0.2 | 11.7% | -1.2 | ? | -0.8 | 2.0%
CCN(C(=O)N1CCOCC1)c1ccccc1C | 14.3 | -0.6 | 17.8% | 1.3 | 3.2% | -0.1 | 0.8%
CCCCNC(=O)C(=O)NCc1ccncc1 | -4.7 | -0.2 | 6.7% | 1.1 | 1.0% | -1.1 | ·
CCCCC[C@@H]1C=C(C(=O)O)[C@H](c2ccc(Cl)c(Cl)c2)N1S(=O)(=O)c1ccc(C)cc1 | -13.5 | -0.5 | · | · | 1.2% | · | 3.3%
CCn1ccnc1CNC(=O)C1CCC(=O)N(Cc2ccccc2F)C1 (configuration not stated) | 19.5 | 0.5 | 3.6% | 2.6 | -0.1% | -0.3 | -9.3%
COc1cc(-c2nc3ccc4ccccc4c3c3c2CCC3)cc(OC)c1O | -4.0 | 1.6 | -14.2% | 0.8 | -1.7% | 2.8 | -0.6%
COc1ccc(-c2cc3nc(C)c(CCC(=O)NC(C)c4ccccc4)c(C)n3n2)c(OC)c1 (configuration not stated) | -2.9 | -1.1 | · | · | 0.6% | · | 4.1%
COc1ccc(CNC(=O)N2CCN(c3cccc(Cl)c3)CC2)cc1OC | 2.6 | 0.0 | -1.7% | -2.1 | 0.8% | 4.1 | ·
O=C(CC1S/C(=N/N=C/c2cccs2)NC1=O)Nc1ccc(Cl)c(Cl)c1 (configuration not stated) | -10.2 | 0.7 | ? | -0.4 | ? | -0.6 | -1.9%
C=CCN1C(=O)c2ccc(C(=O)N(C)CC(=O)Nc3ccccc3Cl)cc2C1=O | -16.9 | -0.2 | · | 8.1 | 1.3% | · | 0.3%
NS(=O)(=O)c1ccc(CCNC(=O)CNCCc2ccc(C(F)(F)F)cc2)cc1 | 30.3 | 0.7 | -4.6% | ? | 2.5% | -2.9 | -0.5%
CCOC(=O)C1CCN(C(=O)c2ccccc2NS(=O)(=O)c2ccc(F)cc2)CC1 | 25.4 | -0.6 | 3.8% | 4.9 | -2.0% | 0.8 | -1.0%
N#CC(C#N)=C1C=CC=CN1/C(=C\c1ccco1)C(=O)c1ccc(Br)cc1 | -6.8 | 1.4 | 8.91µM* | 2.0 | -0.8% | -6.1 | 2.4%
O=C(NCCS(=O)(=O)NC1CCCC1)c1ccc(F)cc1 | 3.0 | -0.5 | · | 2.3 | 2.3% | · | ·
CCOC(=O)/C(=C\c1ccc(OC)c(OC)c1)C(=O)c1cccnc1 | 1.0 | 0.5 | -14.1% | 8.4 | 1.0% | 2.5 | ·
CCCCOc1ccc(C(=O)Nc2cccc(-c3nc4cccnc4s3)c2)cc1 | -5.0 | -0.2 | · | · | 2.3% | · | -7.6%
CSc1nc2c(cc1C#N)C(=O)CC(C)(C)C2 | -13.5 | 0.0 | 10.1% | 1.0 | -0.4% | 1.7 | 0.5%
Cc1nnc(N2C(=O)c3cccc4cccc(c34)C2=O)s1 | 2.3 | 1.7 | 19.4% | -0.3 | 1.6% | 5.7 | 28.2µM*
CN(Cc1ccon1)C(=O)CC1C(=O)NCCN1Cc1cccc(F)c1F (configuration not stated) | -8.0 | 0.5 | 0.4% | 26.4 | 0.1% | · | -10.4%
CC(C)CC(=O)Nc1cc2c3c(c1)CCN3C(=O)CC2 | 5.2 | -0.7 | 20.8% | 1.2 | -0.5% | · | -0.6%
COc1ccc(NC(=O)COc2ccc(-c3ccccc3)cc2)cc1 | -11.8 | 0.2 | · | 21.4 | 2.8% | · | -3.0%
CCC(=O)N1CCC1(C)C(=O)Nc1cccc2c1CCCC2 (configuration not stated) | · | -0.6 | · | · | 3.0% | · | -0.4%
CCC(=O)N1c2ccccc2CC1C(=O)NCCc1ccc(OC)c(OC)c1 (configuration not stated) | -10.4 | 1.2 | · | · | -0.5% | · | -2.1%
O=C(CN(c1ccccc1)S(=O)(=O)c1ccc(Cl)cc1)Nc1cccnc1 | 12.1 | 1.7 | 18.2% | -12.4 | -0.1% | 9.8 | ·
O=C(Nc1ccccc1)c1cccc2c(=O)c3c([nH]c12)CCCC3 | -2.4 | -0.6 | · | · | 2.7% | · | 0.4%
Cc1c(=O)n(OCc2ccccn2)c2ccccc2[n+]1[O-] | -2.6 | -0.9 | 9.4% | 9.7 | -0.5% | 5.2 | -12.7%
O=C(NNC(=O)c1ccc(-c2ccccc2)cc1)Nc1ccccc1F | -9.3 | -0.1 | 13.5% | 1.7 | 0.8% | 0.0 | -5.8%
NC(=O)CN1C(=O)C2C3C=CC(C3)C2C1=O (configuration not stated) | -25.1 | 2.8 | 7.2% | 19.1 | -2.7% | -1.6 | -0.6%
O=C(NC(=S)Nc1ccc(N2CCOCC2)cc1)c1cccc(Cl)c1Cl | 4.3 | -0.8 | 8.6% | -2.1 | 8.3% | 3.9 | 1.7%
CCO[C@@H]1OC(C(=O)N2CCN(Cc3ccccc3)CC2)=C[C@H](C)[C@H]1CCCO | -13.8 | -0.7 | 4.5% | -10.2 | 0.3% | 3.7 | 1.3%
CCC(NC(=O)c1ccccc1NC(=O)c1ccco1)C(=O)NC1CCCCC1 (configuration not stated) | -1.8 | -1.8 | -18.8% | -5.5 | 1.2% | 2.6 | 1.6%
O=C(O)CCc1ccc(-c2ccc(F)cc2)n1NC(=O)c1ccco1 | 2.3 | 1.3 | -25.4% | -3.5 | -1.3% | -2.1 | -1.3%
CCOC(=O)C1=C(CS(=O)(=O)c2ccc(C)cc2)NC(=O)NC1c1ccc(C(C)C)cc1 (configuration not stated) | -10.1 | 1.7 | · | · | 1.3% | · | 0.2%
CCn1c(-c2ccc3[nH]c(C)c(C)c3c2)n[nH]c1=S | -9.9 | 0.5 | -27.0% | -17.2 | · | 3.1 | -25.2%
CC(=O)C1C(=O)CC(C)(O)C(C(C)=O)C1c1ccc(N(C)C)cc1 (configuration not stated) | 9.3 | -0.7 | -6.0% | -2.2 | -8.6%[38.3 µM] | 11.9 | 1.5%
Cc1ccccc1C(=O)Nc1ccc(C(=O)O)cc1NC(=O)c1ccccc1C | -5.0 | -0.3 | 16.2% | ? | 4.1% | -1.6 | -2.8%
COc1cc(/C=C/CNC[C@H]2O[C@@H](n3ccc(N)nc3=O)[C@H](O)[C@@H]2O)ccc1O | 27.5 | 0.4 | · | · | 2.7% | · | -5.3%
C/C(=N\N=C(N)N)c1ccc(Cl)c(Cl)c1 | -2.8 | 0.9 | -1.4% | -1.6 | 2.0% | 2.2 | ·
COc1ccccc1NC(=O)Cc1csc(NC(=S)Nc2ccc(C)cc2)n1 | 10.3 | 1.3 | ? | 1.9 | -7.3%[38.3 µM] | 3.9 | -4.7%
O=C(COC(=O)c1ccc(Cl)nc1)Nc1ccc2ccccc2c1 | 6.9 | -0.9 | · | 17.6 | 5.5% | · | -1.5%
Cc1cc(C)n(CC(O)COc2ccc(Cl)cc2)n1 (configuration not stated) | -18.5 | 0.6 | 0.9% | -17.1 | 0.1% | -5.5 | -2.8%
CCc1ccc(OCC(=O)N(C)CCC#N)c(Br)c1 | 11.7 | 0.2 | 11.7% | -10.9 | 0.1%[38.3 µM] | 2.0 | -1.2%
CCCCNC(=O)CSc1ccc(S(=O)(=O)N2CCOCC2)cn1 | -2.0 | -0.5 | · | 10.0 | -0.3% | · | -3.6%
O=C(NCCNCC(O)COc1ccc(O)cc1)N1CCOCC1 (configuration not stated) | -7.8 | 0.3 | 9.0% | · | 1.0% | 33.5&2.8[activator] | -4.0%
COc1cccc(C2CC(c3cccs3)Nc3ncnn32)c1 (configuration not stated) | 2.9 | 0.1 | -6.8% | ? | -0.3% | -2.1 | -1.3%
COc1ccc(-c2noc(COc3ccc(C)c(C)c3)n2)cc1OC | -10.0 | -0.7 | -9.4% | 19.8 | 12.3% | -0.8 | -2.3%

(list continues)
SMILES | TRPML1 blocker | TRPML1 agonist | Sfp PPTase inh | TRPV1 PAM | PINK1 modulator | Menin-MLL FL inh | ClpP mod
CC(=O)CSc1nnc(C(F)(F)F)n1C | 23.4 | 0.1 | -3.0% | ? | 0.4% | 2.0 | 1.0%
COC(=O)c1ccc(CSc2n[nH]c(C)n2)o1 | -3.0 | 0.6 | 10.9% | 5.9 | -0.8% | 4.0 | -0.8%
Cc1nn(Cc2c(Cl)cccc2Cl)c(C)c1N | 51.5 | 0.4 | 0.5% | 0.3 | -0.7% | 4.2 | 0.7%
COCc1cccc(C2=CC(=O)C[C@H](c3ccc(OC)cc3)C2)c1 | -8.6 | -1.4 | · | -16.4 | -0.9% | · | 0.3%
C=C1CCN([C@H](C(=O)OCc2cccc(C)c2)C(C)C)S(=O)(=O)c2ccccc21 | -11.0 | 3.1 | -5.2% | -9.1 | 0.8% | 2.0 | -3.8%
CSc1ccc(S(=O)(=O)NCC(=O)OCC(=O)N2CCC(C)CC2)cc1[N+](=O)[O-] | -10.8 | -0.6 | · | 8.8 | 0.7% | · | 1.9%
COc1ccc(Cn2c(=O)[nH]c3cc(C(=O)N4CCN(C(=O)c5ccco5)CC4)ccc3c2=O)cc1 | · | -0.4 | · | · | 0.6% | · | -8.1%
Cc1cc(C(=O)CN2C(=O)NC(c3ccccc3)(c3ccccc3)C2=O)c(C)n1Cc1ccccc1 | -15.0 | -0.5 | 1.3% | -1.4 | -0.6% | 16.3 | -3.6%

High-throughput results as filed in PubChem BioAssay.
